Source: PubChem (Broad Institute)
Vaccinia inh: blocks a specific stage of Vaccinia orthopoxvirus infection, primary screen, cell-based, single point; Vaccinia-infected cells, mCherry/Venus stage reporter fluorescence; stronger effect = lower value; some inactives read as strong as hits; activity change (mCherry), % (concentration not given with the values); AID 1053133, 2014; 89,000 compounds, 0.01% hits;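 active means mCherry past -33% and 40 or more points under the early reporter, replicates agreeing; inconclusive means past -33% without that gap or agreement; tested in A549 cells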;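 further: scaled between vehicle wells and reference inhibitor wells; 23 nL library stock went into each well; one replicate is shown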
Vaccinia inh Venus: further read-out of Vaccinia inh, marked with its call; activity change (Venus), %; measured here: Venus reporter, other viral stage;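 negative = less Venus signal; first of two replicates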
* hit, by the source's call; ? = inconclusive; . = not tested or not shown. An excerpt; rates above refer to the full screens.

SMILES	Vaccinia inh	Vaccinia inh Venus
CN(C)C(=O)C[C@H]1C[C@@H]2c3cc(NC(=O)Nc4ccccc4F)ccc3O[C@@H]2[C@@H](CO)O1	10.6	6.2
Cc1ccc(S(=O)(=O)N(C)C[C@H]2Oc3c(NC(=O)Nc4ccc5c(c4)OCO5)cccc3C(=O)N([C@H](C)CO)C[C@H]2C)cc1	-0.3	1.8
O=C(C1CCCCC1)N1CC[C@@H]2[C@H]1c1cc(Br)ccc1N[C@@H]2CO	-11.0	-11.5
O=C(Cc1cccnc1)N1CC(=O)N2[C@H](CO)[C@@H](c3ccc(C4=CCCC4)cc3)[C@@H]2C1	-17.1	-5.9
CO[C@@H]1CN(C)C(=O)c2ccc(NC(=O)C3CCCCC3)cc2OC[C@@H](C)N(C(=O)Nc2ccc(C(F)(F)F)cc2)C[C@H]1C	-22.0	-10.3
CCCN(C)C[C@@H]1OCCCC[C@@H](C)Oc2ccc(NS(=O)(=O)c3c(C)noc3C)cc2C(=O)N([C@@H](C)CO)C[C@@H]1C	0.0	-6.7
Cc1noc(C)c1S(=O)(=O)N(C)C[C@H]1Oc2c(NS(=O)(=O)c3cn(C)cn3)cccc2C(=O)N([C@H](C)CO)C[C@@H]1C	4.8	5.0
COc1ccccc1-c1cn(CC[C@H]2CC[C@H](NC(=O)C3CC3)[C@@H](CO)O2)nn1	-25.7	-19.1
COCC(=O)N1[C@H](CO)[C@@H]2c3ccccc3N(C(=O)c3ccccc3)C[C@@H]21	-5.7	-0.2
Cc1cc(C(=O)Nc2cccc3c2O[C@@H](CN(C)Cc2ccncc2)[C@H](C)CN([C@H](C)CO)C3=O)n(C)n1	26.8	14.6
O=C(Cc1ccncc1)NCC[C@@H]1CC[C@H](NC(=O)C2CCOCC2)[C@@H](CO)O1	5.0	11.8
Cc1ccc(S(=O)(=O)N[C@@H]2CC[C@@H](CCn3cc(-c4ccccc4F)nn3)O[C@@H]2CO)cc1	8.1	10.6
CC(=O)N1CCCCN2[C@H](CO)[C@H](c3ccc(C#Cc4ccccc4F)cc3)[C@H]2C1	?	.
COc1ccc(NC(=O)N(C)C[C@H]2OCCCC[C@H](C)Oc3ccc(NC(=O)CCCN(C)C)cc3C(=O)N([C@@H](C)CO)C[C@H]2C)cc1	19.2	13.3
O=C(NC1CCC1)[C@@H]1[C@@H](CO)[C@@H]2Cn3c(ccc(-c4ccc(F)cc4)c3=O)[C@H]1N2	21.1	7.6

In the list so far, 8 have nitrogen in an aromatic ring:
SMILES	Vaccinia inh	Vaccinia inh Venus
O=C(Cc1cccnc1)N1CC(=O)N2[C@H](CO)[C@@H](c3ccc(C4=CCCC4)cc3)[C@@H]2C1	-17.1	-5.9
CCCN(C)C[C@@H]1OCCCC[C@@H](C)Oc2ccc(NS(=O)(=O)c3c(C)noc3C)cc2C(=O)N([C@@H](C)CO)C[C@@H]1C	0.0	-6.7
Cc1noc(C)c1S(=O)(=O)N(C)C[C@H]1Oc2c(NS(=O)(=O)c3cn(C)cn3)cccc2C(=O)N([C@H](C)CO)C[C@@H]1C	4.8	5.0
COc1ccccc1-c1cn(CC[C@H]2CC[C@H](NC(=O)C3CC3)[C@@H](CO)O2)nn1	-25.7	-19.1
Cc1cc(C(=O)Nc2cccc3c2O[C@@H](CN(C)Cc2ccncc2)[C@H](C)CN([C@H](C)CO)C3=O)n(C)n1	26.8	14.6
O=C(Cc1ccncc1)NCC[C@@H]1CC[C@H](NC(=O)C2CCOCC2)[C@@H](CO)O1	5.0	11.8
Cc1ccc(S(=O)(=O)N[C@@H]2CC[C@@H](CCn3cc(-c4ccccc4F)nn3)O[C@@H]2CO)cc1	8.1	10.6
O=C(NC1CCC1)[C@@H]1[C@@H](CO)[C@@H]2Cn3c(ccc(-c4ccc(F)cc4)c3=O)[C@H]1N2	21.1	7.6

Next part:
SMILES	Vaccinia inh	Vaccinia inh Venus
C[C@H]1CN([C@@H](C)CO)C(=O)c2cc(-c3ccccc3F)cnc2O[C@@H]1CN(C)Cc1cccc(F)c1	-32.8	-28.1
C[C@@H]1CN([C@H](C)CO)C(=O)Cc2cc(NC(=O)C3CC3)ccc2O[C@@H]1CN(C)C(=O)Nc1ccccc1	-3.5	-2.7
CO[C@H](CN(C)C(=O)Nc1ccc(Cl)cc1)[C@H](C)CN(Cc1ccccc1Cl)[C@@H](C)CO	-23.2	-12.7
C[C@H](CO)N1C[C@H](C)[C@@H](CN(C)C(=O)NC2CCCC2)Oc2ncc(-c3ccc(F)cc3)cc2C1=O	-1.2	-7.3
C[C@H](CO)N1C[C@H](C)[C@@H](CN(C)Cc2ccc(C(=O)O)cc2)Oc2ccc(NC(=O)CCCN(C)C)cc2C1=O	3.1	-5.9
Cc1ccc(S(=O)(=O)N(C)C[C@@H]2OCCCC[C@@H](C)Oc3ccc(N(C)C)cc3C(=O)N([C@H](C)CO)C[C@H]2C)cc1	?	.
COc1ccc(NC(=O)Nc2cccc3c2O[C@H](CN(C)S(=O)(=O)c2ccc(C)cc2)[C@@H](C)CN([C@H](C)CO)C3=O)cc1	4.4	4.3
COc1ccccc1-c1ccccc1[C@H]1[C@@H](CO)N(C(=O)C2CC2)[C@H]1C#N	2.0	-1.3
NCC[C@@H]1CC[C@H](NC(=O)C2CC2)[C@@H](CO)O1	1.4	5.8
O=C(C[C@@H]1CC[C@@H]2[C@H](COC[C@H](O)CN2C(=O)C2CCCC2)O1)NCc1ccncc1	-5.6	-8.2
Cn1cnc(S(=O)(=O)N2C[C@@H](O)COC[C@@H]3O[C@@H](CC(=O)NC4CCCC4)CC[C@H]32)c1	8.4	4.3
C[C@@H](O)C#Cc1ccc2c(c1)O[C@H](CN(C)C(=O)c1ccncc1)[C@@H](C)CN([C@@H](C)CO)S2(=O)=O	9.8	5.9
CC(C)C#Cc1cnc2c(c1)C(=O)N([C@H](C)CO)C[C@H](C)[C@H](CN(C)C(=O)Cc1ccncc1)O2	-6.7	-6.2
COc1ccc2c3c([nH]c2c1)[C@H](CO)N(C(=O)Nc1c(C)noc1C)CC31CN(CC2CC2)C1	6.6	1.6
C[C@@H]1CN([C@H](C)CO)C(=O)c2cccc(NS(=O)(=O)c3ccc(F)cc3)c2O[C@H]1CN(C)S(=O)(=O)c1ccc(F)cc1	16.7	12.0
N#C[C@@H]1[C@H](c2ccccc2/C=C/c2ccccc2)[C@H](CO)N1S(=O)(=O)c1ccccc1	-0.5	0.7
C[C@@H]1CN([C@H](C)CO)C(=O)c2cc(NC(=O)Cc3ccccc3)ccc2O[C@@H](C)CCCCO[C@H]1CN(C)Cc1ccncc1	-6.3	-11.2
C[C@@H]1CN([C@@H](C)CO)S(=O)(=O)c2ccc(C3=CCCCC3)cc2O[C@H]1CN(C)Cc1cccc(C(=O)O)c1	-34.9	-26.4
C[C@H](CO)N1C[C@H](C)[C@@H](CN(C)Cc2ccc(F)cc2)Oc2cc(C#CCN(C)C)ccc2S1(=O)=O	?	.
O=C(c1cccc(F)c1)N1CC2(C1)[C@@H](c1ccccc1)[C@@H](CO)N2C(=O)C1CCC1	6.3	3.3
O=C(C1CCOCC1)N1C[C@@H]2[C@H](c3ccccc31)[C@H](CO)N2C(=O)Cc1ccccc1	9.5	8.6
CCCC(=O)Nc1ccc2c(c1)OC[C@@H](C)N(C(=O)CC1CC1)C[C@H](C)[C@@H](OC)CN(C)C2=O	22.6	16.9
CNC(=O)C[C@H]1CC[C@H]2[C@@H](COC[C@@H](O)CN2C(=O)c2ccc3c(c2)OCO3)O1	11.1	11.3
CO[C@H]1CN(C)C(=O)c2ccc(NC(=O)Nc3c(C)noc3C)cc2OC[C@@H](C)N(C)C[C@@H]1C	15.3	4.8
C[C@H]1CN([C@@H](C)CO)C(=O)c2cc(-c3cccc(F)c3)cnc2O[C@H]1CN(C)Cc1ccccc1	0.0	-3.9
C/C=C/c1cnc2c(c1)C(=O)N([C@H](C)CO)C[C@@H](C)[C@H](CN(C)C(=O)Nc1ccc(F)cc1)O2	18.0	4.1
CC(C)NC(=O)N(C)C[C@@H]1OCCCC[C@@H](C)Oc2ccc(NC(=O)Nc3ccc(C(F)(F)F)cc3)cc2C(=O)N([C@H](C)CO)C[C@@H]1C	16.9	8.3
COc1ccc(CN2C[C@@H](C)[C@@H](OC)CN(C)C(=O)c3cc(NC(C)=O)ccc3OC[C@@H]2C)cc1	3.6	4.9
C[C@H]1CN([C@@H](C)CO)C(=O)c2c(c3ccccc3n2C)-c2ccccc2CO[C@@H]1CN(C)C(=O)Cc1ccccc1	?	.
Cc1noc(C)c1S(=O)(=O)N(C)C[C@@H]1OCCCC[C@@H](C)Oc2ccc(NC(=O)Nc3ccc(C(F)(F)F)cc3)cc2C(=O)N([C@H](C)CO)C[C@@H]1C	4.6	4.4
C[C@H]1CN([C@@H](C)CO)C(=O)c2cc(C#CCN(C)C)cnc2O[C@@H]1CN(C)C(=O)Cc1cccnc1	14.3	9.1
CO[C@H]1CN(C)C(=O)c2ccc(NC(=O)c3cccc(F)c3)cc2OC[C@@H](C)N(C)C[C@H]1C	-0.2	0.4
Cc1ccc(S(=O)(=O)N(C)C[C@@H]2OCCCC[C@@H](C)Oc3ccc(N(C)C)cc3C(=O)N([C@H](C)CO)C[C@@H]2C)cc1	-13.2	-18.6
CO[C@H]1CN(C)C(=O)c2cc(NC(=O)c3ccccc3F)ccc2OC[C@@H](C)N(CC2CC2)C[C@H]1C	-2.1	2.1
COc1ccc(NC(=O)Nc2ccc3c(c2)C(=O)N([C@@H](C)CO)C[C@@H](C)[C@H](CN(C)S(=O)(=O)c2cccs2)O3)cc1	-8.5	5.9
CO[C@@H]1CN(C)C(=O)c2ccc(NC(=O)c3ccc(F)cc3)cc2OC[C@@H](C)N(C)C[C@@H]1C	6.0	-2.8
COCc1cn(CC[C@@H]2CC[C@H](NC(=O)c3ccncc3)[C@@H](CO)O2)nn1	-6.9	-0.9
O=C(OC[C@@H]1[C@H]2c3ccccc3OC1(CO)N=C1SCCCN12)c1ccccc1	12.0	3.5
O=C(C1=C[C@H](C2CC2)C[C@H](OCc2ccc(CO)cc2)O1)N1CCCCCCC1	15.5	8.3
COc1ccc(CN(C)C[C@@H]2Oc3ccc(NC(=O)CCN4CCOCC4)cc3C(=O)N([C@H](C)CO)C[C@@H]2C)cc1	5.3	14.6
C[C@@H]1CCCCO[C@H](CN(C)S(=O)(=O)c2ccc(F)cc2)[C@H](C)CN([C@@H](C)CO)C(=O)c2cc(NS(=O)(=O)c3cccs3)ccc2O1	-19.3	-2.4
CCCN(C)C[C@H]1OCc2cn(nn2)CCCC(=O)N([C@H](C)CO)C[C@H]1C	4.3	4.2
COc1ccc(NC(=O)N2C[C@@H](O)COC[C@@H]3O[C@@H](CC(=O)N4CCCCC4)CC[C@H]32)cc1	24.2	11.1
O=C(C[C@H]1CC[C@H]2[C@@H](COC[C@H](O)CN2S(=O)(=O)c2ccccc2)O1)Nc1ccc(-c2ccccc2)cc1	?	.
C[C@H](CO)N1C[C@H](C)[C@@H](CN(C)C(=O)Nc2ccc(F)cc2)Oc2ccc(NC(=O)Cc3cn(C)c4ccccc34)cc2C1=O	29.2	21.9
C[C@H](CO)N1C[C@H](C)[C@H](CN(C)C(=O)C2CCCCC2)Oc2cc(C3=CCCC3)ccc2S1(=O)=O	-28.0	-12.1
O=C(C[C@H]1CC[C@H](NS(=O)(=O)c2ccccc2)[C@H](CO)O1)NCc1ccc(Cl)c(Cl)c1	-6.1	-10.7
CO[C@@H]1CN(C)C(=O)c2cc(NS(=O)(=O)c3cccc(F)c3)ccc2OC[C@H](C)N(Cc2cc(F)ccc2F)C[C@@H]1C	-33.7	-18.9
Cc1ccc(S(=O)(=O)Nc2ccc3c(c2)C(=O)N([C@@H](C)CO)C[C@@H](C)[C@@H](CN(C)S(=O)(=O)c2cccs2)OCCCC[C@@H](C)O3)cc1	-31.1	-14.3
COc1ccc(NC(=O)N(C)C[C@H]2OCCCC[C@@H](C)Oc3ccc(NS(=O)(=O)c4cccs4)cc3C(=O)N([C@H](C)CO)C[C@H]2C)cc1	-16.2	-17.2
COc1ccc2c3c([nH]c2c1)[C@@H](CO)N(C(=O)c1ccccn1)CC31CN(S(C)(=O)=O)C1	12.6	8.5
C[C@@H]1CN([C@@H](C)CO)C(=O)c2cc(NS(=O)(=O)c3cccs3)ccc2O[C@@H](C)CCCCO[C@H]1CN(C)S(=O)(=O)c1cn(C)cn1	26.6	10.0
C[C@H](CO)N1C[C@H](C)[C@@H](CN(C)C(=O)c2ccc3ccn(C)c3c2)OCc2cn(nn2)CCCC1=O	11.8	11.2
C[C@H](CO)N1C[C@H](C)[C@@H](CN(C)S(=O)(=O)c2ccc(Cl)cc2)Oc2ccc(NC(=O)Nc3ccccc3)cc2C1=O	-16.4	-11.4
O=C(c1ccccc1)N1CC(=O)N2[C@H](CO)[C@@H](c3ccc(C#Cc4ccccc4)cc3)[C@@H]2C1	-26.5	-30.5
N#C[C@H]1[C@H](c2ccccc2C2=CCCCC2)[C@H](CO)N1S(=O)(=O)c1ccccc1	16.1	7.8
Cc1ccc(S(=O)(=O)N[C@H]2CC[C@@H](CC(=O)NCc3ccncn3)O[C@@H]2CO)cc1	3.0	5.6
CCCN1C[C@@H](C)[C@@H](OC)CN(C)C(=O)c2cc(NS(=O)(=O)c3cn(C)cn3)ccc2OC[C@H]1C	10.5	11.5
CCN1[C@@H]2Cn3c(ccc(-c4ccncc4)c3=O)[C@H]1[C@@H](C(=O)NCCc1cn(C)cn1)[C@@H]2CO	-5.2	-2.8
O=C(C[C@H]1C=C[C@@H](NC(=O)CC2CC2)[C@@H](CO)O1)NCc1ccc(-c2ccccc2)cc1	-6.2	-4.3
O=C(NCC(F)(F)F)[C@@H]1c2ccccc2C(=O)N(CC23CC4CC(CC(C4)C2)C3)[C@H]1c1ccc(CO)cc1	-7.9	-4.4
